Compound activity deposited in PubChem BioAssay by National Center for Advancing Translational Sciences (NCATS).
CtBP-E1A inh: blocks the CtBP interaction with E1A | AlphaScreen GST-E1A/His-CtBP binding, 1536-well; hits give low values; control for the full effect not named in the record | activity change, % (concentration not given with the values) | 340,000 tested, 0.49% active; in the data active means activity change below about -65%; inconclusive means about -30% to -65%; inactive means above about -30%; note: % is set by controls: 0 for no effect and ±100 for the full control effect
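Steps: dispense buffer (Tris pH 8.0, NaCl 300 mM, TCEP 1 mM, BSA, Tween 20); add 5X protein mix (GST-E1A, His-CtBP, 125 nM each); pin 23 nL compound; 2 h at 37 °C, dark; add 5X beads (50 ug/mL); 1 h; read.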
Six1-Eya2 inh: inhibitors of human Six1/Eya2 interaction. 360,000 tested, 0.56% active. AID 651725. activity change, % (test concentration not listed). AlphaScreen GST-Six1/His-Eya2 binding, biochemical; hits give low values; control for the full effect not named in the record; in the data active = activity change below about -65%; inconclusive = about -30% to -65%; inactive = above about -30%; note: % is set by controls: 0 for no effect and ±100 for the full control effect; compound concentration not given in the record
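AlphaScreen luminescence read after one hour at 37 °C in darkness. Pin-transferred compounds met GST-Six1 and His-Eya2 protein (5X stock 250 nM/500 nM) plus glutathione donor and Ni-chelate acceptor beads (5X, 50 ug/mL).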
TRPML1 ag: activates the human TRPML1 channel. Q9GZU1. TRPML1-expressing cells, Ca2+ dye fluorescence, FDSS; host cell line not named in the record; reference of the full effect not given here. activation, % (no concentration beside the values). 410,000 tested, 0.12% active. AID 624414; in the data active = activation above about 50%; inconclusive = about 30% to 50%; inactive = below about 30%; note: 0% is about no effect; the text of the record puts the active cut at 80%
Target sequence (Q9GZU1 whole entry, looked up): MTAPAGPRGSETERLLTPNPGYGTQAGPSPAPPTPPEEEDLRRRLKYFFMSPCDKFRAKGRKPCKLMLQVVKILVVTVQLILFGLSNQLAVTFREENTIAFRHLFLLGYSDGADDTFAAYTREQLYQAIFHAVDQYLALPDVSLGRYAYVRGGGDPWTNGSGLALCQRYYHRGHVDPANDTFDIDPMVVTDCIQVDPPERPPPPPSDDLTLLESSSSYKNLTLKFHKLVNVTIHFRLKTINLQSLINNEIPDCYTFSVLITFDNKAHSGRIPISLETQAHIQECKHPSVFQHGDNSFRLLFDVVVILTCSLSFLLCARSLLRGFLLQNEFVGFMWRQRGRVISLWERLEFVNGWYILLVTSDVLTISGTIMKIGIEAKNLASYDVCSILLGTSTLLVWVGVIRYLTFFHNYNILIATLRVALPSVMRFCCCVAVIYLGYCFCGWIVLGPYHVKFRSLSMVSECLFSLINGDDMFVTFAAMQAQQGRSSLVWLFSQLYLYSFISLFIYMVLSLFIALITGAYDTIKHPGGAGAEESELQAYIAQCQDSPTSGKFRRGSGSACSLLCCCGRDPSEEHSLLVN
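Kinetic FDSS Ca2+ read in Tet-induced TRPML1-DL cells (ABD Ca8 dye plus quencher, 45-90 min RT loading): baseline, then compound, then 110 s agonist window; EC80 agonist 54-4 at 4uM final added afterwards for a 110 s antagonist window.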
D2 ag: activates the human D2 dopamine receptor | P14416 | DiscoveRx PathHunter D2 beta-arrestin, luminescence, 90 min; 100% = 57 uM dopamine signal | activation, % (no concentration beside the values) | 360,000 tested, 0.084% active; in the data active = activation above about 40%; inconclusive = about 15% to 40%; inactive = below about 15%; note: compound concentration not given in the record; the text of the record calls up to 30% inactive
Target sequence (P14416 whole entry, looked up): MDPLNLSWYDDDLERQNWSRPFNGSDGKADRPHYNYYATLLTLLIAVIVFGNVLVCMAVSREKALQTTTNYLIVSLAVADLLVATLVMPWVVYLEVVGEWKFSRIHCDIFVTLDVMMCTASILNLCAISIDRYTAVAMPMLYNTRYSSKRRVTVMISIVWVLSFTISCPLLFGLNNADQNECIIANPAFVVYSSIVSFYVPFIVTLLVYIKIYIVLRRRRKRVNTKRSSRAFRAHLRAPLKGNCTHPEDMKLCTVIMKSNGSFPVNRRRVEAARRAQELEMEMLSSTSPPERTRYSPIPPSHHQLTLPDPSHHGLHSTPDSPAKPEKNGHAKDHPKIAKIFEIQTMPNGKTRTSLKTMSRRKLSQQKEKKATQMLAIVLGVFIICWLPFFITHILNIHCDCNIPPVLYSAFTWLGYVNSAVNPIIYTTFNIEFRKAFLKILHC
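Agonist mode: compounds alone added to overnight-plated D2 PathHunter cells for 90 min at 37 C, with 57 uM final dopamine (EC100) defining full response. Beta-arrestin recruitment detected by chemiluminescent reagent, read after 1 h at ambient temperature.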
TRPML1 blocker: human mucolipin-1 channel inhibition | TRPML1-inducible cells, Ca2+ dye fluorescence, FDSS; hits give low values; inhibition of EC80 agonist-evoked calcium signal | Q9GZU1 | activity change, negative = inhibition, % (concentration not given with the values) | 390,000 tested, 0.02% active; in the data active means activity change below about -50%; inconclusive means about -30% to -50%; inactive means above about -30%;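 note: stimulus is agonist 54-4 at its EC80 concentration; % is set by controls: 0 for no effect and ±100 for the full control effect; compound concentration not given in the record; the text of the record puts the active cut at -80%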
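Tet-induced TRPML1-DL cells loaded with Ca8 no-wash calcium dye were read kinetically on FDSS. Compound addition was followed by EC80 agonist 54-4 (4 uM final); inhibition was read over 110 s.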
PINK1 modulator: PINK1 expression modulation; PINK1 immunofluorescence, high-content cytometry, 24 h; Potency, µM (highest dose often 76.6 µM), for inactives: at the highest dose activation (PINK1 increase), usual class: activators; 410,000 tested, 0.2% active; AID 624263; active = well fitted activation curve with a large enough effect; inconclusive = small, poorly fitted or top-dose-only effect; inactive = flat fitted curve, though single readings scatter; cell line not stated here;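 note: potency is the fitted concentration of half-maximal effect; % of control where 0% means no effect; nearly all actives have a fitted effect of over 65% in size; a mitochondrial uncoupler was the plate control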
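Fluorescence from anti-PINK1 antibody, together with nuclear and cell stains, was scanned on a laser-scanning cytometer. Before staining, stable-line cells were incubated 24 hours with compounds at 5 concentrations; primary antibody 12 h at 10 degrees C.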
Active calls of the source: *; & = joins results of further samples; [ ] = dose if it differs, or a comment.

`O=C(N/N=C/c1cc([N+](=O)[O-])ccc1O)c1cccc2cc[nH]c12` gave CtBP-E1A inh -93*, Six1-Eya2 inh -70*, TRPML1 ag 1.1, D2 ag 1.6, TRPML1 blocker 15 and PINK1 modulator inconclusive.
Screening CN(C)c1cccc(-c2nnc(SCCCC#N)o2)c1 returned CtBP-E1A inh -4, Six1-Eya2 inh -3, TRPML1 ag -0.5, D2 ag -1.2, TRPML1 blocker -1 and PINK1 modulator 2.7%.
For COc1ccc(NC(=O)c2ccccc2N(Cc2ccccc2)S(C)(=O)=O)cc1OC the results were CtBP-E1A inh -10, Six1-Eya2 inh -3, TRPML1 ag 0.6, D2 ag 2.1, TRPML1 blocker 36 and PINK1 modulator 0.5%.
`CCOc1ccc(NC(=O)c2ccc(CC)s2)c([N+](=O)[O-])c1` gave CtBP-E1A inh -13, Six1-Eya2 inh -13, TRPML1 ag -0.9, D2 ag 2.4, TRPML1 blocker -13 and PINK1 modulator -0.5%.
`c1coc(CNC2CCCCCCC2)c1` gave CtBP-E1A inh 2, Six1-Eya2 inh 0, TRPML1 ag 0.0, D2 ag -2.1, TRPML1 blocker -4 and PINK1 modulator 0.2%.
For CCCCNC(=O)CCCn1c(=O)c2ccccc2n(Cc2ccc(Cl)cc2)c1=O the results were TRPML1 ag -0.4, TRPML1 blocker 1 and PINK1 modulator 1.5%.
Screening COCCNc1nc(SC)nc2sc3c(c12)CCN(C)C3 returned CtBP-E1A inh -4, Six1-Eya2 inh -3, TRPML1 ag 0.3, D2 ag 2.2, TRPML1 blocker 1 and PINK1 modulator -2.0%.
Screening O=C(Cn1ccc([N+](=O)[O-])n1)Nc1ccccn1 returned Six1-Eya2 inh 3, TRPML1 ag 0.1, D2 ag -1.2, TRPML1 blocker -4 and PINK1 modulator -1.4%.
`Cc1ccc(C)c(CSC2=NCCN2S(=O)(=O)c2ccccc2)c1` gave CtBP-E1A inh 17, Six1-Eya2 inh 9, TRPML1 ag 3.5, D2 ag -0.1, TRPML1 blocker 55 and PINK1 modulator 3.4%.
Screening COc1ccc(OCCC(=O)OCC(=O)Nc2ccc(Br)cc2)cc1 returned Six1-Eya2 inh -8, TRPML1 ag -0.1, D2 ag -4.4, TRPML1 blocker -10 and PINK1 modulator 0.1%.
`CC(C)N(Cc1ccccc1)C(=O)C1CCCN(c2ncnc3c2nc2n3CCCCC2)C1` (stereo not given) gave Six1-Eya2 inh 15, TRPML1 ag 2.4, D2 ag -0.1, TRPML1 blocker -16 and PINK1 modulator -0.7%.
Screening CCc1ccc(NC(=O)CSc2nc3c(oc4ccccc43)c(=O)n2-c2cccc(C)c2)cc1 returned TRPML1 ag 1.1, TRPML1 blocker 5 and PINK1 modulator 0.7%.
Cc1cccc(NC(=O)Cn2c(=O)n(CCc3ccccc3)c(=O)c3sc4ccccc4c32)c1 was read as TRPML1 ag 0.5, TRPML1 blocker 16 and PINK1 modulator -0.1%.
Screening Cc1ccc(C2=NS(=O)(=O)N(C)C(C(=O)Nc3cc(C)n(CC(=O)N4CCC(C)CC4)n3)=C2)cc1 returned Six1-Eya2 inh -5, TRPML1 ag -0.3, D2 ag 2.6, TRPML1 blocker 0 and PINK1 modulator 3.4%.
For O=C(O)c1ccc(/C=N/Nc2nc3ccccc3[nH]2)cc1 the results were CtBP-E1A inh -5, Six1-Eya2 inh 3, TRPML1 ag 0.1, D2 ag -2.7, TRPML1 blocker 18 and PINK1 modulator 0.4%.
`Cc1ccc(NC(=O)COC(=O)C2CC2)cc1Cl` gave CtBP-E1A inh 6, Six1-Eya2 inh 2, TRPML1 ag 0.9, D2 ag -0.2, TRPML1 blocker 9 and PINK1 modulator 1.6%.
`c1ccc(Cn2c(Cn3c(-c4cnccn4)nc4ccccc43)nc3ccccc32)cc1` gave CtBP-E1A inh -1, Six1-Eya2 inh -6, TRPML1 ag 0.4 and PINK1 modulator 0.1%.
`O=C(CSc1nc2ccccc2s1)NC(=O)NCc1ccco1` gave CtBP-E1A inh -5, Six1-Eya2 inh -1, TRPML1 ag -0.4, D2 ag -4.0, TRPML1 blocker 22 and PINK1 modulator 9.8%[38.3 µM].
N#CC(C#N)=C(Nc1ccccc1)c1ccccc1 was read as CtBP-E1A inh 4, Six1-Eya2 inh 5, TRPML1 ag 0.3, D2 ag 2.6, TRPML1 blocker -13 and PINK1 modulator 0.2%.
Screening COCCNc1ncnc2c1ncn2[C@H]1CN(Cc2cccs2)C[C@@H](CO)O1 returned CtBP-E1A inh 6, Six1-Eya2 inh 1, TRPML1 ag -0.4, D2 ag -2.4 and PINK1 modulator -0.2%.
For Cc1ccc2nc(-c3cccc(SC4CCCCC4)c3)c(NCc3ccccc3)n2c1 the results were CtBP-E1A inh 0&-7, Six1-Eya2 inh 0&-3, TRPML1 ag 0.6&-0.4, D2 ag 12, TRPML1 blocker 64 and PINK1 modulator 25µM*.
COc1ccc(-c2cn[nH]c2N)cc1OC was read as CtBP-E1A inh -1, Six1-Eya2 inh 0, TRPML1 ag 1.0, D2 ag -1.0, TRPML1 blocker 1 and PINK1 modulator 1.4%.
COc1cccc(CNC(=O)c2cc(=O)[nH]c3ccc(S(=O)(=O)N4CCCCC4)cc23)c1 was read as TRPML1 ag -0.8, TRPML1 blocker -1 and PINK1 modulator 2.9%.
Screening CCOc1cc(CNC(=O)C(NS(=O)(=O)c2cccs2)C(C)C)cc(OCC)c1OCC (stereo not given) returned TRPML1 ag -0.8, TRPML1 blocker 9 and PINK1 modulator -0.8%.
For Cc1cc(C)n(CC(=O)N/N=C/c2ccco2)n1 the results were CtBP-E1A inh 6, Six1-Eya2 inh -1, TRPML1 ag -0.2, D2 ag 1.7, TRPML1 blocker 11 and PINK1 modulator -1.3%.
CCOc1ccc(Nc2ncnc3c2nnn3Cc2ccccc2)cc1 was read as Six1-Eya2 inh -9, D2 ag 4.9 and PINK1 modulator 3.4%.
For Cc1cccc(N(CC(=O)NC2CCCC2)C(=O)c2c(C)noc2C)c1 the results were CtBP-E1A inh -6, Six1-Eya2 inh 5, TRPML1 ag 0.1, D2 ag -3.8, TRPML1 blocker 0 and PINK1 modulator -1.6%.
COc1ccc(OC)c(N2Cc3ccccc3C2)c1 was read as CtBP-E1A inh -11, Six1-Eya2 inh 0, TRPML1 ag -0.3, D2 ag -1.7, TRPML1 blocker -8 and PINK1 modulator 2.7%.
`COc1ccc(C(CNC(=O)c2cccc(S(=O)(=O)Nc3ccc(C)cc3)c2)N2CCCCC2)cc1` (stereo not given) gave CtBP-E1A inh -6, Six1-Eya2 inh -8, TRPML1 ag -0.1, D2 ag -1.9, TRPML1 blocker 9 and PINK1 modulator 3.2%.
Screening O=C(NCCc1csc(-c2ccc(C(F)(F)F)cc2)n1)C(=O)Nc1cc(F)ccc1F returned TRPML1 ag 3.0, TRPML1 blocker -2 and PINK1 modulator -0.7%.
`O=C1CCN(S(=O)(=O)c2ccccc2)CCN1CCOCc1ccc(C(F)(F)F)cc1` gave CtBP-E1A inh -7, Six1-Eya2 inh 15, TRPML1 ag -0.7, D2 ag -4.1, TRPML1 blocker 6 and PINK1 modulator -0.1%.
`COc1ccc(Oc2nccc(-c3ccccc3)c2C#N)cc1` gave CtBP-E1A inh 20, Six1-Eya2 inh 19, TRPML1 ag 1.1, D2 ag 0.8, TRPML1 blocker 64 and PINK1 modulator 6.0%.
For COc1ccc(-c2nc(C(=O)Nc3ccc(C(C)=O)cc3)nn2-c2cccc(Cl)c2)cc1 the results were TRPML1 ag 0.6, TRPML1 blocker 41 and PINK1 modulator -0.2%.
`COc1cccc(Nc2nc(N)nc(C(F)(F)F)n2)c1` gave CtBP-E1A inh -7, Six1-Eya2 inh -2, TRPML1 ag 2.3, D2 ag -1.9, TRPML1 blocker 0 and PINK1 modulator -3.6%[38.3 µM].
For Cc1ccc(N2CC3=C(C2=O)C(c2ccc(Br)cc2)NC(=O)N3C)cc1 (stereo not given) the results were TRPML1 ag 0.9, TRPML1 blocker 32 and PINK1 modulator -2.0%.
For CCOC(CNC(=O)CCc1c(C)nc2nc(C)nn2c1C)OCC the results were CtBP-E1A inh -3, Six1-Eya2 inh 2, TRPML1 ag 2.7, D2 ag -2.5, TRPML1 blocker -20 and PINK1 modulator 1.5%.
For COc1ccc(C(=O)N=C2SC3CS(=O)(=O)CC3N2Cc2ccccc2)cc1OC (stereo not given) the results were CtBP-E1A inh 0, Six1-Eya2 inh -1, TRPML1 ag -0.4, D2 ag -2.1, TRPML1 blocker -6 and PINK1 modulator -0.6%.
CC(C)(C)OC(=O)Nc1ncnc2c1ncn2C1OC(CO)C2OC(C)(C)OC21 (stereo not given) was read as CtBP-E1A inh 0, Six1-Eya2 inh -6, TRPML1 ag 0.2, D2 ag -5.8, TRPML1 blocker -10 and PINK1 modulator -0.5%.
`Cc1cccc(CNC(=O)CC2C(=O)NCCN2C2CCCC2)c1` (stereo not given) gave CtBP-E1A inh 4, Six1-Eya2 inh -3, TRPML1 ag 0.0, D2 ag -2.7, TRPML1 blocker -29 and PINK1 modulator 0.5%.
For O=C1NC(=O)C2(CCCCCCC2)N1 the results were CtBP-E1A inh 4, Six1-Eya2 inh -3, TRPML1 ag -0.6, D2 ag -2.9, TRPML1 blocker 3 and PINK1 modulator 1.8%.
`CCC(=O)N1Cc2cc(C(=O)NCC(F)(F)F)nc(-c3cccc(-c4cncnc4)c3)c2[C@@H]1CCO` gave CtBP-E1A inh 5, Six1-Eya2 inh 0, TRPML1 ag -0.1 and PINK1 modulator 8.4%.
For Cc1ccc(CNC(=O)Cn2nc(N3CCN(c4ccccc4)CC3)ccc2=O)cc1 the results were TRPML1 ag 2.6, TRPML1 blocker 25 and PINK1 modulator -0.4%.
Cn1cc(-c2coc3c(C(=O)NCc4cccs4)cccc23)cn1 was read as CtBP-E1A inh -24, Six1-Eya2 inh -22, TRPML1 ag -0.1, D2 ag 1.1 and PINK1 modulator 0.6%.
NC(=S)N/N=C/c1ccc(C(F)(F)F)cc1 was read as CtBP-E1A inh -9, Six1-Eya2 inh 0, TRPML1 ag -0.4, D2 ag -0.9, TRPML1 blocker -3 and PINK1 modulator 0.8%.
COc1ccc(NC(=O)c2sc3nc(C)c(C(=O)Nc4ccc(C)cc4C)c(-c4sccc4C)c3c2N)cc1 was read as TRPML1 ag 1.7, TRPML1 blocker 12 and PINK1 modulator -1.4%.
Screening O=C1CCC(NC(=O)c2ccccc2)C(=O)N1 (stereo not given) returned CtBP-E1A inh -6, Six1-Eya2 inh -5, TRPML1 ag 0.4, D2 ag -0.3, TRPML1 blocker 16 and PINK1 modulator 2.2%.
